Arbovirus inh = antivirals against arbovirus infection, primary screen, cell-based, full library, 10K replicate subset | arbovirus infection cell-based antiviral screen | inhibition, % at 10 µM | actives 0.37% (n = 200,000) | AID 1251, 2008;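 active = inhibition from about 30%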;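 note: bluetongue infection of BSR cells; cell survival read as ATP light after 72 h; 0% = infected wells without compound and 100% = uninfected wells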
Mtb H37Rv = M. tuberculosis H37Rv growth inhibitors, H37Rv strain (AID 1626) | M. tuberculosis H37Rv growth inhibition; higher % means a stronger effect | inhibition, % at 10 µM, or IC50 in µM where a hit was titrated | actives 0.95% (n = 220,000);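 active = confirmed in a dose series; inconclusive = inhibition above 80% but not taken into the dose series; inactive = below 80% or under 30% at every dose of the series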;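 note: bacteria incubated seven days before Alamar blue readout; 0% = bacteria only wells and 100% = bacteria with antibiotic wells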
Mtb bLac sens = beta-lactam sensitization of Mtb H37Rv, H37Rv; M. tuberculosis H37Rv growth with meropenem, percent inhibition; hits of this screen are not shown here; inhibition, % at 25 µM; actives 0.27% (n = 330,000);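 active = about 74% or more and at least 40 points above the plate without the antibiotic, then above 30% in a dose series; inconclusive = first-round hits that could not be retested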;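 note: growth measured after seven days incubation then overnight dye step; 0% = bacteria only wells and 100% = bacteria with antibiotic; twin plates without the antibiotic show which effects depend on it; some results filed as inactive read as strong as hits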
RecA splice inh = Mtb RecA intein splicing inhibitors, primary screen, biochemical, fluorescence, HTS; inhibition, %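 (about 9 µM by stock and volumes)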; cell-free RecA intein splicing; actives 0.75% (n = 290,000); in the data active = inhibition above about 30%; inconclusive = no clear call, values can overlap the other calls;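 note: 0% = vehicle wells and 100% = reference inhibitor control wells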
Target sequence (P9WHJ3 whole entry, looked up, canonical isoform): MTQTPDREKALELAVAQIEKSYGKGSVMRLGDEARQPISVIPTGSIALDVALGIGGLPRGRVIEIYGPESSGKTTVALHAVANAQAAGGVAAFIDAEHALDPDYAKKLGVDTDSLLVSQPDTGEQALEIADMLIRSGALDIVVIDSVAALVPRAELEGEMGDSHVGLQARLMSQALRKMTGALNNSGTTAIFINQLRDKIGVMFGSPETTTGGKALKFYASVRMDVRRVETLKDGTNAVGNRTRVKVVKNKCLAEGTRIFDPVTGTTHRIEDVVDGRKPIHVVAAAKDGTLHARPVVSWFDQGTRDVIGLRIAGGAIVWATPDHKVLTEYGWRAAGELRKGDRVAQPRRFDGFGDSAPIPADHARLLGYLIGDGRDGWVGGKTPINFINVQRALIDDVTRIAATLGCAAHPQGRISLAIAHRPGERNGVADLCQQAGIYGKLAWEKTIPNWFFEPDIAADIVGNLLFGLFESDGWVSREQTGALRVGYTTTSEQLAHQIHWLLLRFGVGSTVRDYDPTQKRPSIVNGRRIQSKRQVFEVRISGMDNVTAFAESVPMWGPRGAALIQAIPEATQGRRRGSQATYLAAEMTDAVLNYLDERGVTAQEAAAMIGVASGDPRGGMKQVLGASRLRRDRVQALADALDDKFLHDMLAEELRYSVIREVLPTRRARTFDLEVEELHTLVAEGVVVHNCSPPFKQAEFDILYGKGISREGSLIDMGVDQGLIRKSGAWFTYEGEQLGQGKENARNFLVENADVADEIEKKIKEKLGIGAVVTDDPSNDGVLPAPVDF
YopH inh = YopH tyrosine phosphatase inhibitors, primary screen, biochemical, fluorescence Ex485/Em525; inhibition, %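 (about 10 µM by stock and volumes)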; actives 0.16% (n = 140,000); YopH tyrosine phosphatase [Yersinia enterocolitica];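 active = inhibition of 50% or more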;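 note: controls were vehicle for no effect and minimum signal wells for full effect; inactives centre near -20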
Arbovirus inh repeat = recorded beside Arbovirus inh, whose call it bears; inhibition, %; measured here: 10K subset replicate screen; many hits read low in the repeat;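 first of two repeat runs on a subset; 0% = infected and 100% = uninfected wells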
An asterisk follows results filed as active; ? = inconclusive; nt = no result given.

SMILES	Arbovirus inh	Mtb H37Rv	Mtb bLac sens	RecA splice inh	YopH inh	others
CN(/C(=N\S(=O)(=O)c1ccccc1)c1ccccc1)c1ccc(O)cc1	15	1%	1	-3.5	nt
CCOC(=O)C(=O)/C(=C\N(C)C)c1onc(-c2c(F)cccc2Cl)c1C(=O)OC	-7	5%	-7	-4.2	-41
Cc1cc([N+](=O)[O-])nn1CCCC(=O)Nc1cc(Oc2ccc(F)cc2)cc([N+](=O)[O-])c1	-23	76%	99	1.1	-31
COc1ccccc1CCNC(=O)c1ccc(C)o1	0	5%	29	1.0	-9
COc1cccc(NC(=O)Nc2ccc3nsnc3c2)c1	-8	-4%	13	3.9	-23
O=C(CC1Oc2ccccc2NC1=O)NCc1ccccc1 (centres undefined)	5	4%	14	nt	-38	Arbovirus inh repeat=1
CCOC(=O)c1nnc(-c2ccc(C)cc2)nc1Sc1cccc(Cl)c1	17	nt	52	3.9	-19
Cc1ccc(NC(=O)CCS(=O)(=O)c2ccc3c(c2)NC(=O)C(C)S3)nc1 (centres undefined)	nt	nt	0	-0.2	nt
CC(=O)OC[C@H]1O[C@@H](Sc2cccc3cccnc23)[C@H](OC(C)=O)[C@@H](OC(C)=O)[C@@H]1OC(C)=O	4	-1%	?	0.0	-24
O=C(COc1ccc(S(=O)(=O)N2CCOCC2)cc1)NCc1ccccc1	nt	nt	-7	0.0	nt
c1ccc2c(N3CCCCCC3)nc(-c3ccncc3)nc2c1	-17	37%	93	13	-12
N#C/C=C(/c1ccc(F)cc1)N1CCOCC1	1	-4%	1	nt	nt

The closing 2 entries of the section above open the next one.
SMILES	Arbovirus inh	Mtb H37Rv	Mtb bLac sens	RecA splice inh	YopH inh	others
c1ccc2c(N3CCCCCC3)nc(-c3ccncc3)nc2c1	-17	37%	93	13	-12
N#C/C=C(/c1ccc(F)cc1)N1CCOCC1	1	-4%	1	nt	nt
COc1ccc(C(c2oc(CO)cc(=O)c2O)c2oc(CO)cc(=O)c2O)cc1OC	-2	8%	-2	-2.7	nt
CN(C)S(=O)(=O)c1cccc(-c2nn(-c3ccccc3)cc2/C=C(\C#N)c2nc3ccccc3[nH]2)c1	-1	11%	23	-118	-19
CN1CCN(C(=O)/C(=C/c2cccs2)NC(=O)c2ccco2)CC1	2	nt	-4	1.0	nt
O=C(CSc1n[nH]c(C2CCCC2)n1)NC1CCCC1	1	2%	-3	-0.8	-23
CC1(C)Cc2c(sc3ncnc(N)c23)CO1	11	2%	-3	1.4	-30
COC(=O)c1ccc(NC(=O)CN2CCN(c3ccccc3)CC2)cc1	0	-3%	1	2.0	-45
Cc1ccc(C(=O)NCCCc2ccccc2)c(C)c1	6	5%	-6	1.5	nt
Cc1oc(-c2cccc(Cl)c2)nc1CN1CCC(C(=O)NCC2CCCO2)CC1 (centres undefined)	0	-4%	-12	0.1	-1
CC(=O)Nc1ccc(S(=O)(=O)NNC(=O)CCc2ccccc2)cc1	nt	nt	-1	2.6	nt
COc1cccc(-c2ccc(SCc3ccccn3)nn2)c1	10	6%	-11	-1.7	nt
O=C(O)CCNC(=O)/C(=C\c1ccco1)NC(=O)c1ccco1	nt	nt	3	-3.2	nt
Cc1sc2ncnc(NCC(c3ccco3)N3CCCC3)c2c1C (centres undefined)	-1	3%	-7	-2.0	0
C=CCNC1=C(Cl)C(=O)c2ccccc2C1=O	-36	3%	?	34*	-4
CC(=O)Nc1ccc(S(=O)(=O)N/N=C/c2ccc(C)o2)cc1	nt	nt	1	-1.2	nt
CC12CC[C@H]3[C@@H](CCC4(O)C[C@H](O)CCC34/C=N/NC(=O)c3ccc(O)cc3)C1(O)CCC2C1=CC(=O)OC1 (some centres undefined)	nt	4%	-4	0.3	nt
CCCC(=O)NCc1nc2ccccc2n1CC(=O)c1ccccc1	nt	nt	-2	-1.0	nt
CCOc1ccccc1C(=O)N1CCCCC1C (centres undefined)	-5	-4%	8	-6.3	11
CCOC(=O)C(C(=O)OCC)C(C(=O)OCC)N1CCOCC1 (centres undefined)	-44	-3%	99	1.6	-12
CCN(c1ccc(OC)cc1)S(=O)(=O)c1ccc2c(c1)CCN2C(=O)CCC(=O)O	0	-12%	?	1.5	-20
Cc1cccc(CSc2ccc3nnc(-c4cccnc4)n3n2)c1	-10	8%	2	2.6	-17
Cc1cccc(Cc2nnc(CCC(=O)NCc3cn4ccccc4n3)o2)c1	1	2%	0	0.1	nt
Cc1ccc(-c2ccc(=O)n(CC(=O)NCCCN3CCCCC3C)n2)cc1 (centres undefined)	6	-13%	-7	-0.3	-6
CCOC(=O)c1cccc(NC(=O)CCNS(=O)(=O)c2cccc3nonc23)c1	nt	nt	0	5.1	nt
COc1ccc(N(CC(=O)Nc2c(C)n(C)n(-c3ccccc3)c2=O)S(=O)(=O)c2ccc(C)cc2)cc1	-6	-9%	-10	-0.7	nt
CN(C(=O)COC(=O)c1cccc(S(=O)(=O)N2CCOCC2)c1)C1CCS(=O)(=O)C1 (centres undefined)	nt	nt	-11	-4.0	nt
COc1ccccc1NC(=O)Cc1csc(N)n1	-6	-2%	-2	0.1	12
CCOc1ccc(N(CC(=O)N/N=C/c2cccnc2)S(C)(=O)=O)cc1	-3	2%	-3	0.6	nt
O=[N+]([O-])c1ccccc1CS(=O)(=O)c1ccccc1	nt	nt	-7	0.3	nt
COc1ccccc1NS(=O)(=O)c1cccc(C(=O)OCC(=O)NC2CC2)c1	nt	nt	-1	-6.2	nt
COc1ccc(OC)c(NC(=O)c2nc3ccccc3s2)c1	2	0%	2	0.8	nt
CCOC(=O)C1CCCN(S(=O)(=O)c2c(C)c(C)cc(C)c2C)C1 (centres undefined)	-4	-12%	-8	2.2	-124
COC(=O)C1CCN(C(=O)C23CCC(C)(C(=O)O2)C3(C)C)CC1 (centres undefined)	14	-2%	-8	nt	2
COc1cc(/C=N/Nc2ncc(C(F)(F)F)cc2Cl)cc(OC)c1OC	-14	-2%	18	-3.9	-10
COc1ccccc1NC(=O)CSc1sc2c(O)cc(=O)[nH]c2c1C#N	nt	nt	-3	2.0	nt
COc1cc2ccccc2cc1C(=O)N(CCN(C)C)c1nc2c(C)cccc2s1	nt	nt	3	12	nt
CCN1C(=NCCc2cccnc2)N[C@@H](c2ccccc2)[C@H](C(=O)OC)[C@H]1C	nt	nt	-10	2.9	nt
CC(C)Oc1ccc(S(=O)(=O)N2CCOCC2)cc1NC(=O)c1cc([N+](=O)[O-])ccc1N1CCOCC1	nt	nt	0	3.1	nt
CCC1CC(C)(C(=O)Nc2ccc(S(N)(=O)=O)cc2)OC1=O (centres undefined)	0	nt	0	2.2	-25	Arbovirus inh repeat=1
Cc1ccc(C)c(/C(O)=C2/C(=O)C(=O)N(CCN3CCOCC3)C2c2ccc(C)o2)c1 (centres undefined)	-5	-3%	15	-0.5	-13
CN(C)Cc1cn(CCC(=O)O)c2ccccc12	nt	-1%	-21	-2.6	-136
Cc1nn(C(C)C(=O)N2CCOCC2)c(=O)c2nn(-c3ccccc3)c(C)c12 (centres undefined)	nt	nt	-5	-5.8	nt
CCCCCc1c(C)c(C#N)c2nc3ccccc3n2c1-n1ccnc1C	4	-2%	-8	-3.6	-46
Nc1nc(SCc2c(F)cccc2Cl)[nH]c(=O)c1-c1ccccc1	4	-1%	12	-1.2	-4
COc1ccc(Cl)cc1C(=O)Nc1ccc(N(C)C(C)=O)cc1	-17	4%	-3	4.8	-5
CN(C)C(=S)Nc1ccc2ccccc2c1	7	?	1	0.5	3
O=S(=O)(NC1CCCC1)c1ccc(S(=O)(=O)N2CCc3ccccc32)cc1	1	4%	-4	nt	-1
Cc1ccc(S(=O)(=O)N(C)C)cc1-n1c(SCC(=O)Nc2ccc(F)c(F)c2F)nc2ccccc2c1=O	-2	7%	0	-0.7	-10
Cc1nc(NC(=O)c2cnccn2)ccc1Br	nt	nt	1	-0.7	nt
Cn1c(=O)[nH]c(=O)c2c1nc1n2CC(O)CN1c1ccccc1 (centres undefined)	nt	nt	1	-4.5	nt
CCN(c1ccc(NC(=O)COC(=O)/C=C/c2cccs2)cc1)C(C)C	10	5%	50	-0.8	nt
COc1ccc(C(C[N+](=O)[O-])c2c(C)[nH]c3ccccc23)cc1OC (centres undefined)	2	1%	4	4.8	-26
CC(=O)Nc1ccc(Oc2cc(C#N)c(C#N)cc2N2CCCCCC2)cc1	-21	-7%	52	nt	-19
Cc1sc2nc(SCCN(C)C)n(-c3ccccc3)c(=O)c2c1-c1ccc(F)cc1	nt	nt	4	4.0	nt
COc1cccc(C(=O)Nc2ccc3c(c2)OCO3)c1OC	nt	nt	-8	-1.1	nt
Cc1ccc(Cl)cc1NC(=O)c1ccc(NC(=O)CCC(=O)O)cc1	1	-2%	-3	2.3	-28
Cc1cccc(N(CC(=O)N2CCCC2)S(C)(=O)=O)c1	nt	nt	-5	-0.1	nt
CCOC(=O)CC1=NN(c2ccccc2)C(=O)/C1=C\c1ccc(N(C)C)cc1	-6	-4%	-2	14	-42
O=C(C1CC1)N1CCCC(c2ccc(Cl)cc2)=N1	8	-2%	88	2.8	nt
CCOC(=O)CN(Cc1ccccc1)C(=O)OC(C)(C)C	nt	nt	-5	-0.7	nt
COc1cccc(C2C(C(=O)Nc3nc4ccccc4s3)=C(C)NC3=C2C(=O)CC(C)(C)C3)c1OC (centres undefined)	10	>100µM*	21	-24	-30

(listing goes on)
SMILES	Arbovirus inh	Mtb H37Rv	Mtb bLac sens	RecA splice inh	YopH inh	others
CCOC(=O)C1CCN(C(=O)c2cccc(NC(=O)C(CC)CC)c2)CC1	2	-2%	2	1.1	-11
CC1CCN(Cc2nc3c(c(=O)n(C)c(=O)n3C)n2CCCc2ccccc2)CC1	-1	1%	-7	8.4	-8
O=C(Nc1cccc(NC(=O)c2cccs2)c1)c1cccnc1	3	1%	-6	0.3	nt
Cn1c(SCc2cccc(F)c2)nnc1-c1ccncc1	nt	nt	-12	2.7	nt
COc1ccc(Cl)cc1NC(=O)CN(C)C(=O)c1cc(-c2ccncc2)nc2ccccc12	nt	nt	-2	1.2	nt
COc1ccc(/C=C2\SC(=O)N(CC(=O)Nc3ccccc3O)C2=O)cc1OC	nt	nt	8	-3.1	nt
COc1ccc(C(=O)NCc2csc(-c3cccs3)n2)cc1	nt	-7%	1	-1.3	nt
CCOc1ccc(-n2c(C)nc3cc(C(=O)NCCCN4CCOCC4)ccc32)cc1	0	-2%	-9	2.3	2
Cc1cccc(-n2c(O)c(/C=C/C=Nc3ccccc3)c(=O)[nH]c2=O)c1	-5	-8%	-6	0.9	-22
Cc1csc(NC(=O)CSc2nccn2Cc2ccco2)n1	nt	nt	2	0.0	nt
Cc1cc(O)cc(=O)n1Cc1ccco1	1	1%	-10	-5.4	-43
CC(C)(C)OC(=O)NCCCCCc1nnc(SCC(N)=O)o1	3	-7%	7	3.7	-11

Taken from the entries so far (15 entries):
SMILES	Arbovirus inh	Mtb H37Rv	Mtb bLac sens	RecA splice inh	YopH inh	others
CCOC(=O)CC1=NN(c2ccccc2)C(=O)/C1=C\c1ccc(N(C)C)cc1	-6	-4%	-2	14	-42
O=C(C1CC1)N1CCCC(c2ccc(Cl)cc2)=N1	8	-2%	88	2.8	nt
CCOC(=O)CN(Cc1ccccc1)C(=O)OC(C)(C)C	nt	nt	-5	-0.7	nt
COc1cccc(C2C(C(=O)Nc3nc4ccccc4s3)=C(C)NC3=C2C(=O)CC(C)(C)C3)c1OC (centres undefined)	10	>100µM*	21	-24	-30
CCOC(=O)C1CCN(C(=O)c2cccc(NC(=O)C(CC)CC)c2)CC1	2	-2%	2	1.1	-11
CC1CCN(Cc2nc3c(c(=O)n(C)c(=O)n3C)n2CCCc2ccccc2)CC1	-1	1%	-7	8.4	-8
O=C(Nc1cccc(NC(=O)c2cccs2)c1)c1cccnc1	3	1%	-6	0.3	nt
Cn1c(SCc2cccc(F)c2)nnc1-c1ccncc1	nt	nt	-12	2.7	nt
COc1ccc(Cl)cc1NC(=O)CN(C)C(=O)c1cc(-c2ccncc2)nc2ccccc12	nt	nt	-2	1.2	nt
COc1ccc(/C=C2\SC(=O)N(CC(=O)Nc3ccccc3O)C2=O)cc1OC	nt	nt	8	-3.1	nt
COc1ccc(C(=O)NCc2csc(-c3cccs3)n2)cc1	nt	-7%	1	-1.3	nt
CCOc1ccc(-n2c(C)nc3cc(C(=O)NCCCN4CCOCC4)ccc32)cc1	0	-2%	-9	2.3	2
Cc1cccc(-n2c(O)c(/C=C/C=Nc3ccccc3)c(=O)[nH]c2=O)c1	-5	-8%	-6	0.9	-22
Cc1csc(NC(=O)CSc2nccn2Cc2ccco2)n1	nt	nt	2	0.0	nt
Cc1cc(O)cc(=O)n1Cc1ccco1	1	1%	-10	-5.4	-43

High-throughput results as filed in PubChem BioAssay.

Some of the compounds tested, so the mix of outcomes need not match the whole.
